MgrA DNA FP – alters Staphylococcus aureus MgrA binding to DNA; fluorescence polarization; inhibition, %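 (about 10 µg/mL by stock and volumes)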; 0.13% of 84,000 active;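 active = above 50% in either of two replicates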;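 note: 0% = protein plus DNA without compound and 100% = DNA alone without protein; higher means less MgrA bound to DNA so lower polarization; one replicate is shown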
S aureus helic – S. aureus DNA helicase inhibition; purified S. aureus helicase, fluorescence unwinding assay; about half of the hits fall short of the stated cut; inhibition, %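 (tested at about 80 µM)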; 0.05% of 120,000 active; AID 485395;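 active = both duplicates at 50% or more, or one of them with a favoured structure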;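 note: 0% = mean of negative control wells and 100% = mean of positive control wells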
Numbers without * were called inactive; nt = not tested or not shown; & = joins results of further samples. An excerpt; rates above refer to the full screens.

SMILES	MgrA DNA FP	S aureus helic
O=C(O)C1CCCN(C(=O)c2ccc(Cl)cc2)C1 (configuration not stated)	0.8	13.0
COC(=O)Cn1c(=NC(=O)CSCC(=O)NC2CCCCC2)sc2cc(OC)ccc21	nt	5.0
CCc1nnc(NC(=O)c2c(O)c3ccccc3[nH]c2=O)s1	-0.5	-2.0
COc1ccc(CCNC(=O)CSc2nc(N)c3c(C)c(C)sc3n2)cc1	nt	6.0
CCCN1C(=O)c2ccccc2NC1c1cc(OC)c(OC)c(OC)c1 (configuration not stated)	-1.1	18.0
CC1CCCCC1NC(=O)c1ccc2c(c1)NC(=O)C1CCCN21 (configuration not stated)	-0.1	10.0
Cc1ccc(-c2ccc(C#N)c(=O)n2CC(=O)N2CCC(C(N)=O)CC2)cc1	-2.5	7.0
CC(CC1CC(C)(C)OC1=O)c1nc(=S)[nH][nH]1 (configuration not stated)	1.3	5.0
CN(C)CCCNCc1cccs1	-1.3	8.0
CC(=O)Nc1nc(CSc2nc3ccccc3n2C)cs1	nt	15.0
c1ccc(CN2CCC(n3nnc4cccnc43)CC2)cc1	0.2	nt
COc1ccccc1C(=O)NCc1ccccc1C	-4.8	7.0
Cc1cnc(C(=O)OCC(=O)NCC23CC4CC(CC(C4)C2)C3)cn1	nt	-12.0
O=C(CSc1nnc(C2COc3ccccc3O2)o1)N1CCCCC1 (configuration not stated)	2.1	6.0
Nc1cnc(-c2ccccc2)nc1	nt	4.0
c1ccc(-c2cc(N3CCOCC3)nc(-c3ccccc3)n2)cc1	-2.1	17.0
COc1cc2c(cc1OC)C(C)N(C(=O)c1cccs1)CC2 (configuration not stated)	-1.6	nt
CCOc1ccc(C(=O)CCC(=O)O)cc1	-0.1	nt
COc1ccc(CCN2CSC(=S)N(CCc3ccc(OC)c(OC)c3)C2)cc1OC	-0.3	nt
O=C(CSn1nnnc1-c1ccccc1)c1ccccc1	-3.2	13.0
COc1ccc(Cl)cc1C(=O)Nc1nc(-c2ccc(C)o2)cs1	nt	-7.0
Cc1nc(-c2ccc3[nH]c(=O)oc3c2)cs1	nt	18.0
COc1ccc(C2CC(c3cc(OC)cc(OC)c3)=NC(N)=N2)cc1 (configuration not stated)	-1.8	2.0
Cn1nccc1NC(=O)CCCC(=O)O	-2.8	nt
CCSc1nnc(CNC(=O)c2cccc(OC)c2)n1-c1ccccc1OC	nt	17.0
Nc1nc(-c2ccc(Cl)cc2)cs1	-2.9	nt
C=CCSc1nc2c(cnn2-c2ccc(C)cc2)c(=O)[nH]1	nt	-25.0
Cc1nc(SCc2c(F)cccc2Cl)[nH]c(=O)c1C	-2.1	nt
CC(C)N(C(=O)Cn1c(CO)nc2ccccc21)c1ccccc1	nt	-17.0
CCCc1cc(=O)[nH]c(SCC(=O)N2c3ccccc3Sc3ccccc32)n1	-1.4	2.0
COc1ccc(N2CCN(C(=O)Cc3c(C(=O)O)n(C)c4ccccc34)CC2)cc1	nt	-20.0
CC(C)(C)c1csc(-c2ccc(-c3csnn3)cc2)n1	-3.6	nt
O=C(Cn1c(=O)cnc2ccccc21)NCC1CCCO1 (configuration not stated)	nt	-16.0
FC(F)(F)c1ccc(-n2ccnc2)cc1	1.9	nt
O=C1CC(c2ccccc2)C(C(=O)O)N1 (configuration not stated)	nt	8.0
O=c1[nH]nc(-c2ccccc2)o1	nt	4.0
CC(C)(C)OC(=O)N1CCC(O)CC1	-1.9	nt
Cc1ccc2oc(=O)c3cc(C(=O)NCCc4ccsc4)sc3c2c1	nt	9.0
S=C(NCCSCc1ccco1)NC1CCCCC1	nt	-6.0
CCn1c(SCC(=O)N2CCOCC2)nc2ccc(I)cc2c1=O	1.7	-7.0
CSc1sc(C(=O)NN)cc1C#N	nt	27.0
CCc1cccc(NC(=O)C(NC(=O)C2CCCCC2)C(C)C)c1 (configuration not stated)	nt	29.0
CCCCOc1ccc(C(=O)CCN2CCCCC2)cc1	8.2&4.5	nt
CCOc1ccc(Cc2c[nH]c(=O)[nH]c2=O)cc1	-1.9	4.0
Oc1ccc(C=Nc2ccccc2-c2nc3ccccc3[nH]2)c(O)c1	0.4	-12.0
CCOc1ccc(-c2nc(-c3cc(C)n(C)c3C)cs2)cc1OC	nt	-9.0
Cc1nn(-c2ccccc2)cc1/C=N/NC(N)=S	nt	1.0
Cc1cccc(NC(=O)CC2OCCN(Cc3ccccc3)C2=O)c1 (configuration not stated)	1.4	7.0
COc1cc(Cc2nnc(C(=O)NCc3ccccc3)o2)cc(OC)c1OC	-0.8	9.0
O=C1C2C3C=CC(C3)C2C(=O)N1CN(Cc1ccccc1)CN1C(=O)C2C3C=CC(C3)C2C1=O (configuration not stated)	0.8	5.0
Cc1c(C)n(CC(O)CNCc2ccco2)c2ccccc12 (configuration not stated)	0.2	-5.0
COc1cccc(C(=O)Nc2sccc2C#N)c1	nt	-11.0
O=C(Nc1ccc(OCC(O)Cn2c3ccccc3c3ccccc32)cc1)c1ccccc1 (configuration not stated)	1.6	-9.0
CC(OC(=O)c1ccccc1Oc1ccccc1)C(=O)NC1CC1 (configuration not stated)	nt	-1.0
O=C(O)/C=C/c1cc(Cl)c2c(c1)OCO2	nt	5.0
O=c1oc2ccccc2c(Cl)c1CN1CCCC1	-3.1	2.0
Cc1ccc(Sc2ccc(/C=C(\C#N)C(N)=O)o2)cc1	1.6	7.0
CCc1c(C#N)c(SC)nc(C)c1C(=O)Nc1ccccc1	nt	17.0
CCn1c(=NC(=O)c2ccc(OC(C)C)cc2)sc2cc3c(cc21)OCO3	nt	8.0
Cc1ccc(/C=C/C(=O)O)s1	nt	-20.0
Other records:
SMILES	MgrA DNA FP	S aureus helic
CCn1nc(C(=O)OCc2csc(C)n2)c2ccccc2c1=O	nt	6.0
CC(C)COC(=O)Oc1ccc(Br)cc1	2.0	-3.0
Cc1nnc(NC(=O)c2cccc(S(=O)(=O)N3CC(c4ccccc4)CC3=O)c2)s1 (configuration not stated)	nt	5.0
CCCCn1c(=O)c(CCC(=O)OCc2nnc(-c3cc4c(s3)CCCC4)o2)nc2ccccc21	nt	7.0
Cc1[nH]nc(N=CC2=C(O)CCCC2=O)c1-c1ccccc1	-2.9	4.0
N#C/C(=C\C=C\c1ccccc1)c1cccc(Cl)c1	0.1	nt
COc1cc(OC)cc(C(=O)OCc2c(C)noc2C)c1	nt	-6.0
COc1ccc(OC)c(-n2c(=S)[nH]c3cc(C(=O)N4CCC(C(N)=O)CC4)ccc3c2=O)c1	-0.8	11.0
Cc1ccc(S(=O)(=O)c2ccccc2C(F)(F)F)cc1	-2.2	nt
O=C(OCC(=O)N1N=C(c2ccc(Cl)cc2)CC1c1ccco1)c1ccccc1 (configuration not stated)	nt	6.0
CS(=O)(=O)c1ccc(C(=O)OCc2ccccc2F)cc1	nt	6.0
CC(O)CNc1nc2ccccc2n1Cc1ccc(C#N)cc1 (configuration not stated)	nt	-18.0
O=C(CCN1C(=O)c2ccccc2C1=O)OCc1ccco1	nt	33.0
CCc1ccc(-c2nc(N)sc2CC(=O)O)cc1	-4.2	14.0
CC(C)Oc1ccc(C(CC(N)=O)CC(=O)O)cc1 (configuration not stated)	0.8	7.0
COC(=O)c1c(NC(=O)c2ccccc2)sc2c1CCC2	-9.1	2.0
CC1CCCCN1CCCNC(=O)Cn1ncc2ccc(Cl)cc21 (configuration not stated)	-1.2	12.0
CC(CSc1nnnn1-c1ccccc1)Cn1c(Br)nc2c1c(=O)[nH]c(=O)n2C (configuration not stated)	nt	-15.0
COc1ccc(S(=O)(=O)N2CCNCC2)cc1OC	-0.5	6.0
Cc1ccc(Cl)cc1N1CCN(CC(=O)c2ccc3[nH]ccc3c2)CC1	nt	6.0
CC(C)(C)C(=O)Cn1nnc(N2CCOCC2)n1	0.3	nt
N#CC(=Nc1ccccc1)C1=C(O)c2ccccc2C1=O	0.1	nt
O=C(O)c1cccc2c1NC(c1ccccc1F)C1CC=CC21 (configuration not stated)	25.2	nt
COCc1c(C(=O)Nc2ccc(OC)cc2OC)oc2ccccc12	nt	-5.0
c1ccc(-c2nc3cc(Cc4ccc5oc(-c6ccccn6)nc5c4)ccc3o2)nc1	1.5	-16.0
COc1cccc(-c2nnn(Cc3nc4ccc(Cl)cc4n3CCO)n2)c1	nt	-11.0
CCOC(=O)C1CCCN(Cc2ccc3ccccc3c2)C1 (configuration not stated)	-4.9	nt
O=S(=O)(c1ccc(-n2cccn2)cc1)N1CCCc2ccccc21	-1.2	nt
Cc1coc2cc3oc(=O)c(-c4ccccc4)cc3cc12	2.8	12.0
CCCNc1sc(S(C)(=O)=O)nc1S(=O)(=O)c1ccc(Cl)cc1	nt	-26.0
OC(COCc1cccs1)CN1CCCCCC1 (configuration not stated)	0.6	9.0
c1ccc2c(c1)NCCS2	nt	10.0
C[N+]1(CCOc2ccccc2)Cc2ccccc2C1	-0.5	4.0
NC(N)=Nc1ccc(Cl)cc1	nt	6.0
COc1cc(OC)c(C(=O)NC(C)C2CCCO2)cc1OC (configuration not stated)	0.8	13.0
CCN(CC)CCSc1nc2ccccc2[nH]1	nt	7.0
O=C1CCc2cc(S(=O)(=O)NC(C(=O)NC3CCCC3)c3ccccc3)ccc2N1 (configuration not stated)	nt	-12.0
O=C(O)c1c(CNCc2cccs2)c2ccccc2n1Cc1ccccc1	nt	-16.0
C[C@@H]1O[C@@H](OC[C@H]2OC(Oc3c(-c4ccc(OCCO)c(OCCO)c4)oc4cc(OCCO)cc(O)c4c3=O)[C@H](O)[C@@H](O)[C@@H]2O)[C@H](O)[C@H](O)[C@H]1O (some centres not stated)	0.2	nt
CSc1nc(N)n(-c2cc(Cl)cc(Cl)c2)n1	-1.1	nt
N#C/C(=C\c1cc(Br)ccc1O)c1nc2ccccc2[nH]1	2.6	nt
CCC(=O)NCc1ccc2c(c1)cc(C)n2C	nt	3.0
C=C1c2ccccc2NC(=O)N1c1ccccc1	2.1	3.0
CC1(C)CC(=S)C=C(N2CCOCC2)C1	nt	-14.0
O=C(NC1CCCc2ccccc21)c1ncoc1-c1cccs1 (configuration not stated)	nt	-15.0
CC(C)c1[nH]nc2oc(=N)c(C#N)c(-c3c(O)[nH]c4ccc(Br)cc34)c12	-3.1	7.0
O=C(O)c1sc(C(=O)O)c(-c2ccco2)c1-c1ccco1	1.9	nt
Cc1ccc(C)c(NC(=O)C(c2ccccc2)N2CCCCC2C(N)=O)c1 (configuration not stated)	nt	11.0
CN(Cc1ccccc1)S(=O)(=O)c1ccc2c(c1)SCC(=O)N2	-0.6	-8.0
CCn1c(-c2cc(OC)ccc2OC)csc1=Nc1ccc(O)cc1	nt	-15.0
Clc1ccc(Cn2nnc(-c3ccccc3)n2)cc1	-4.3	4.0
Cc1ccc2nc3sc4ccc(Cl)cc4n3c(=O)c2c1	1.2	nt
CSc1ncc(C(=O)OC(C)c2nc3ccccc3c(=O)[nH]2)n1-c1ccc(F)cc1 (configuration not stated)	nt	-10.0
O=c1[nH]c2cc3c(cc2[nH]1)OCCO3	2.3	-6.0
Cc1cc(C)c(N=Cc2sccc2C)c(C)c1	-0.4	-4.0
COc1ccc(Nc2nnc(SC3CCOC3=O)s2)cc1 (configuration not stated)	nt	-1.0
COc1ccc(OCCNS(=O)(=O)Cc2ccccc2)cc1	nt	-15.0
Cc1ccc(Nc2nc(N)nc(CN3CCC(Cc4ccccc4)CC3)n2)cc1	-0.8	11.0
COC(=O)c1cn(CC(=O)NC2CCCCCC2)c2ccccc12	1.8	-16.0
Nc1nc(-c2ccccc2)c(C(=O)Nc2ccccc2)s1	nt	19.0
(cont.)
SMILES	MgrA DNA FP	S aureus helic
CCOc1cccc(NC(=O)C2CC(=O)N(C)C(=Nc3ccc(C)c(Cl)c3)S2)c1 (configuration not stated)	-0.9	nt
CC1CC(NC(=S)Nc2ccc(I)cc2F)CC(C)(C)C1 (configuration not stated)	-2.2	nt
CN1CCCN(Cc2cc(C(C)(C)C)c(O)c(C(C)(C)C)c2)CC1	-9.4	-3.0
O=C(CCc1nc2cccnc2n1-c1ccccc1)Nc1ccc2c(c1)OCO2	nt	15.0
COc1ccc(N2CCN(C(=O)C34CC5CC(CC(C5)C3)C4)CC2)cc1	nt	-5.0
Nc1nc(-c2sccc2Cl)cs1	0.2	nt
CC(OC(=O)c1ccccc1Nc1ccc(SC(F)F)cc1)C(N)=O (configuration not stated)	nt	-3.0
CCCCC1CC(C)(C(=O)Nc2ccc(S(N)(=O)=O)cc2)OC1=O (configuration not stated)	-0.8	6.0
O=C(CCN(Cc1ccco1)S(=O)(=O)c1ccc(Cl)cc1)Nc1ccccc1	1.9	nt
Cc1c2cnn(-c3ccccc3)c(=O)c2c(C)n1C(C)C(=O)NCc1ccccn1 (configuration not stated)	nt	-22.0
CCOc1cc(/C=N/NC(=O)C(OC)c2ccccc2)ccc1O (configuration not stated)	0.3	4.0
O=C(NCC12CC3CC(C1)CC(CNC(=O)C(F)(F)F)(C3)C2)C(F)(F)F	nt	-20.0
CS(=O)(=O)c1ccccc1C(=O)Nc1cc2c(cc1C(=O)O)OCCO2	nt	-2.0
